# LYPLA1 inh: blocks human lysophospholipase 1, a PME1 counter-screen; recombinant LYPLA1, FP-Rh probe fluorescence polarization; inhibition, % at 5.9 µM; 0.16% of 320,000 active; O75608;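 active = inhibition above the mean of all tested compounds plus 3 SD, set per campaign, cut at about 14% in these data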;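 also: inhibitors block serine hydrolase probe labeling of LYPLA1 so polarization falls; 0% = enzyme with DMSO and 100% = wells lacking LYPLA1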
# Fam108B counter: blocks mouse Fam108B hydrolase in RBBP9 counter-screen | 0.33% of 300,000 active | inhibition, % at 9.51 µM | recombinant Fam108B, FP-Rh probe fluorescence polarization;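 active = inhibition above the screen mean inhibition plus 3 SD, computed separately per campaign, cut at about 18% in these data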;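 also: inhibitors lower polarization as less probe binds the enzyme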
# PAFAH1B3 inh: PAFAH1B3 (human) inhibition; 0.28% of 340,000 active; Q15102; AID 492972; inhibition, % at 3.39 µM; recombinant PAFAH1B3, FP-rhodamine probe, fluorescence polarization;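 active = inhibition above the screen-wide average of all tested compounds plus 3 SD, cut at about 25% in these data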;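 also: 0% = enzyme with DMSO only and 100% = wells lacking PAFAH1B3 protein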
# Target sequence (Q15102 whole entry, looked up): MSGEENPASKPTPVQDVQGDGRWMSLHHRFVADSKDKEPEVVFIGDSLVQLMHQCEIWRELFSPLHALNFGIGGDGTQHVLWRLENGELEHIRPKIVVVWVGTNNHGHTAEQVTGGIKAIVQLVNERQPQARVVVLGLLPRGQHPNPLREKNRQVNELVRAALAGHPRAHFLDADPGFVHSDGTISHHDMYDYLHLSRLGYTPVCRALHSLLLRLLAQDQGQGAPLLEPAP
# PAFAH1B2 FP inh: blocks human PAF acetylhydrolase 1b catalytic subunit 2 | AID 492953 | 1.2% of 340,000 active | inhibition, % at 3.39 µM | recombinant PAFAH1B2, FP-rhodamine activity probe, fluorescence polarization;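 active = inhibition above the mean of all tested compounds plus 3 SD, cut at about 24% in these data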;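 also: 0% = enzyme with DMSO and 100% = wells lacking PAFAH1B2; many of its hits are not listed in these tables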
# Target sequence (P68402 whole entry, looked up): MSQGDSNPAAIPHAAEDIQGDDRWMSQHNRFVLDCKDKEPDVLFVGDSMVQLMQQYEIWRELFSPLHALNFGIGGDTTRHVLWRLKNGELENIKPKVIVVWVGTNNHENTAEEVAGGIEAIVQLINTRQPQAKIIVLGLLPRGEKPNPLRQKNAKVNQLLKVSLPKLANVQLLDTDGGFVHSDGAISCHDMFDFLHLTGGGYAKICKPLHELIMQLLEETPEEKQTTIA
# PAD4 inh: inhibitors of human PAD4. Q9UM07. recombinant PAD4, RCA probe fluorescence polarization. inhibition, % at 6.36 µM. 0.41% of 330,000 active;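 active = percent inhibition above a cutoff equal to the mean of all tested compounds plus 3 SD, cut at about 15% in these data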;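 also: 0% = PAD4 with RCA probe and DMSO and 100% = probe without PAD4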
# PAFAH2 inh: inhibitors of human PAFAH2; Q99487; recombinant PAFAH2, FP-rhodamine activity probe, fluorescence polarization; inhibition, % at 3.39 µM; 0.99% of 340,000 active;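 active = inhibition above the mean over all tested compounds plus 3 SD, cut at about 30% in these data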;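 also: inhibitors block probe labeling of enzyme so polarization drops; 0% = enzyme with DMSO and 100% = wells lacking PAFAH2 protein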
# PME-1 inh: PME-1 (human) inhibition | Q9Y570 | inhibition, % at 5.9 µM | recombinant PME-1, FP-Rh probe fluorescence polarization | 0.53% of 320,000 active | AID 2130;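 active = inhibition above the campaign mean of all compounds plus 3 SD, cut at about 26% in these data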;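 also: competitive labeling of PME-1 active site by serine hydrolase directed probe; 0% = PME-1 with DMSO and 100% = wells lacking PME-1 enzyme; inhibitors block probe labeling so polarization falls and inhibition rises; many of its hits are not listed in these tables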
# The depositor's hits bear a star; . = no result given. A portion of the library, so the mix of outcomes need not match the whole.
SMILES	LYPLA1 inh	Fam108B counter	PAFAH1B3 inh	PAFAH1B2 FP inh	PAD4 inh	PAFAH2 inh	PME-1 inh
Cc1cccc(N2C(=O)CC(N3CCN(C(=O)c4ccccc4)CC3)C2=O)c1 (configuration not stated)	1.6	-2.6	6.0	1.1	-1.3	-5.3	5.9
NS(=O)(=O)c1ccc(NC(=O)c2ccc3nccnc3c2)cc1	0.2	0.8	.	.	-3.6	.	9.6
CN(C)c1nc(N)nc(Cn2ccnc2)n1	0.9	-1.8	3.4	0.7	-1.1	-3.4	-5.6
CCc1nc(-c2cc3ccc(C)cc3[nH]c2=O)no1	3.4	8.0	1.2	-0.9	-2.0	-4.6	4.4
O=C1C2ON(c3ccccc3)C(c3ccccn3)C2C(=O)N1c1ccc(Br)cc1 (configuration not stated)	0.4	0.0	3.5	6.2	-4.8	4.5	-7.0
Cc1sc2nc(CN3CCCC3)nc(N3CCC(C(N)=O)CC3)c2c1C	0.0	-3.1	2.5	1.0	-5.0	3.8	-3.2
Cc1ccc(CCNC(=O)C2CCCN(c3nc4ccccc4o3)C2)cc1 (configuration not stated)	0.7	-2.5	4.2	1.1	0.2	1.8	0.3
Cc1ccc2[nH]c(=O)c(-c3noc(CC(C)C)n3)cc2c1	1.2	-4.3	6.6	2.3	-2.6	2.0	-6.2
COc1ccc(NC(=O)/C(C#N)=C\c2ccc(Br)o2)cc1	-0.2	0.8	0.6	2.5	-4.7	5.0	-3.8
COc1ccc(F)cc1CN1CCN(c2ncnc3scc(-c4ccccc4)c23)CC1	1.7	-2.4	.	.	-4.4	.	-0.7
CC(C)(O)C(=O)NN(C(=O)c1ccccc1)c1cccc(Br)c1	4.6	-1.0	7.4	-2.5	-8.7	-0.8	-3.0
Cc1sc2nc(CN3CCCCC3)nc(N3CCN(C(=O)c4ccco4)CC3)c2c1C	1.7	-0.3	8.7	2.2	-2.9	0.1	-4.8
N#Cc1c(NC(=O)CSCC(=O)O)sc2c1CCCC2	-0.6	1.9	4.7	4.3	-3.3	1.3	-2.5
COc1ccc(N2C(=O)C(Cl)=C(N(CCO)Cc3ccccc3)C2=O)cc1	2.4	1.0	11.4	-0.1	0.1	1.6	7.8
c1csc(-c2nc(NCC3CCCO3)c3ccccc3n2)c1 (configuration not stated)	-2.8	-1.4	3.6	-5.6	3.2	3.3	1.6
COc1cccc(OCCNC(=O)CSc2ccc(C(F)(F)F)cc2[N+](=O)[O-])c1	-4.7	-1.0	-2.4	28.5*	-7.0	1.8	0.1
Cc1ccc(N2C(=O)CC(N(O)C3CC(=O)N(c4ccc(C)cc4)C3=O)C2=O)cc1 (configuration not stated)	-1.1	-3.8	-5.7	4.5	-10.2	-3.1	-0.1
CCOc1ccc(N2C(=O)CC(N(O)c3ccccc3)C2=O)cc1 (configuration not stated)	3.9	-0.6	6.8	-0.5	-1.2	-3.4	-7.0
CCOC(=O)C1(C(F)(F)F)N=C(N(C)C)OC(N(C)C)=N1	-0.9	2.8	-4.6	3.7	1.3	1.6	-2.2
O=C1C2ON(c3ccc(Cl)cc3)C(c3ccco3)C2C(=O)N1c1ccccc1 (configuration not stated)	1.3	-3.6	7.0	11.9	2.2	0.8	-2.9
O=C(OCc1cc2ccccc2[nH]c1=O)C1CCCO1 (configuration not stated)	-0.7	-0.6	4.7	-1.7	-5.4	0.1	4.5
O=c1[nH]c(SCC2CCCCO2)nc2ccccc12 (configuration not stated)	-0.2	-0.2	5.4	3.1	-2.1	-0.3	-2.7
O=[N+]([O-])c1ccc(-c2nc(NCC3CCCO3)c3ccccc3n2)cc1 (configuration not stated)	-3.0	-1.0	10.0	1.6	-0.9	5.6	8.7
CCOc1ccc(N2C(=O)C3ON(c4ccccc4)C(c4ccco4)C3C2=O)cc1 (configuration not stated)	3.9	-6.6	12.3	2.4	1.7	2.0	-3.4

# In the list so far, 8 have sulfur:
SMILES	LYPLA1 inh	Fam108B counter	PAFAH1B3 inh	PAFAH1B2 FP inh	PAD4 inh	PAFAH2 inh	PME-1 inh
NS(=O)(=O)c1ccc(NC(=O)c2ccc3nccnc3c2)cc1	0.2	0.8	.	.	-3.6	.	9.6
Cc1sc2nc(CN3CCCC3)nc(N3CCC(C(N)=O)CC3)c2c1C	0.0	-3.1	2.5	1.0	-5.0	3.8	-3.2
COc1ccc(F)cc1CN1CCN(c2ncnc3scc(-c4ccccc4)c23)CC1	1.7	-2.4	.	.	-4.4	.	-0.7
Cc1sc2nc(CN3CCCCC3)nc(N3CCN(C(=O)c4ccco4)CC3)c2c1C	1.7	-0.3	8.7	2.2	-2.9	0.1	-4.8
N#Cc1c(NC(=O)CSCC(=O)O)sc2c1CCCC2	-0.6	1.9	4.7	4.3	-3.3	1.3	-2.5
c1csc(-c2nc(NCC3CCCO3)c3ccccc3n2)c1 (configuration not stated)	-2.8	-1.4	3.6	-5.6	3.2	3.3	1.6
COc1cccc(OCCNC(=O)CSc2ccc(C(F)(F)F)cc2[N+](=O)[O-])c1	-4.7	-1.0	-2.4	28.5*	-7.0	1.8	0.1
O=c1[nH]c(SCC2CCCCO2)nc2ccccc12 (configuration not stated)	-0.2	-0.2	5.4	3.1	-2.1	-0.3	-2.7

# One compound at a time (already shown). Screens in order: LYPLA1 inh, Fam108B counter, PAFAH1B3 inh, PAFAH1B2 FP inh, PAD4 inh, PAFAH2 inh, PME-1 inh
# Profile of CCOc1ccc(N2C(=O)CC(N(O)c3ccccc3)C2=O)cc1 (configuration not stated) : 3.9, -0.6, 6.8, -0.5, -1.2, -3.4, -7.0
# Profile of Cc1ccc(N2C(=O)CC(N(O)C3CC(=O)N(c4ccc(C)cc4)C3=O)C2=O)cc1 (configuration not stated) : -1.1, -3.8, -5.7, 4.5, -10.2, -3.1, -0.1
